Screens as filed in PubChem BioAssay.
5HT1a antag: human 5-HT1a receptor antagonists, primary screen, cell-based, CHO, Ga15 NFAT-bla reporter | inhibition, % at 10 µM | CHO 5-HT1a Ga15 NFAT-bla reporter, antagonist mode | 62,000 compounds, 0.68% hits;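 active = inhibition above the mean of all tested compounds plus 3 SD, cut at about 43% in these data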;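 note: receptor stimulated by 5-CT agonist at 100 nM near EC80; beta-lactamase reporter measured by ratiometric fluorescence of a cleavable substrate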
A340 absorber: compound light absorbance at 340 nm, profiling panel, artefact control, biochemical, MLSMR library, data from PS, PMK, MK assays. compound absorbance at 340 nm, fold over control. fold change at 10 µM. 65,000 tested, under 10 active;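 active = at 10 µM dose, initial 340 nm absorbance at least 2 fold that of control wells; inactive = change under 2 fold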;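 note: initial absorbance extrapolated from kinetic A340 decline of NADH oxidation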
HTR1A agonist: human 5-HT1a receptor agonists, primary screen, cell-based, CHO, Ga15 NFAT-bla reporter | 65,000 compounds, 0.56% hits | 5-hydroxytryptamine receptor 1A (Homo sapiens), P08908 | activation, % at 10 µM | CHO 5-HT1a Ga15 NFAT-bla reporter, FRET ratio; 0% basal, 100% maximal reference agonist;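 active = activation above the screen-wide mean activation plus 3 SD, cut at about 19% in these data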;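 note: 0% = DMSO wells and 100% = 5-CT at EC100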
SF-1 act: activators of human SF-1, primary screen, cell-based, CHO-K1, Gal4-SF-1 LBD, luciferase luminescence; Steroidogenic factor 1 (Homo sapiens), Q13285; CHO-K1 Gal4-SF-1 LBD luciferase reporter; % increase over DMSO SF-1-specific signal; activation, % at 10 µM; 65,000 compounds, 1.9% hits; AID 522, 2006;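 active = activation above the mean activation of all tested compounds plus 3 SD, cut at about 50% in these data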
Target sequence (Q13285 whole entry, looked up, the tested form may be a part): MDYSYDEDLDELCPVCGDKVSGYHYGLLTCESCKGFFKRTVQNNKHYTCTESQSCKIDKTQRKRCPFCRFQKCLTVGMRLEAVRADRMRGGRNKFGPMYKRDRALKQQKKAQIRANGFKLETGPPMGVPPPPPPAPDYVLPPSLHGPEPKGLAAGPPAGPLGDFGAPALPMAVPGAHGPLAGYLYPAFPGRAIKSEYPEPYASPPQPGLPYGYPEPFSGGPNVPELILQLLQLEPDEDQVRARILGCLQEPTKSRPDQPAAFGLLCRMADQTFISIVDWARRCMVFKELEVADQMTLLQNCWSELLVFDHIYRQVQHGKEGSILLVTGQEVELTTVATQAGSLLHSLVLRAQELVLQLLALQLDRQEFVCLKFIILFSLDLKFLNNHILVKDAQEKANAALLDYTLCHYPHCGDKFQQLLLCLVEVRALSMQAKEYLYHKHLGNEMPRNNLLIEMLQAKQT
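Test system: CHO-K1 cells with Gal4–hSF-1 LBD chimera plus Gal4-driven luciferase; Input: 4,000 cells/well; Compound: 10 µM only; Times: 20 h compound treatment, 37 °C; Measured by: steady-glow luciferase luminescence, read after 15 min reagent incubation; Measure: percent activation versus DMSO; Control set: DMSO and mock-transfected background; Replicates: one test per compound.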
MMP13 inh: human MMP13 inhibitors, primary screen, biochemical, FRET peptide cleavage | Collagenase 3 (Homo sapiens), P45452 | MMP-13 fTHP FRET cleavage, Mca fluorescence | inhibition, % at 4 µM | 65,000 compounds, 0.07% hits | AID 570, 2006;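 active = inhibition above the mean of compound-free control plate wells plus 3 SD, cut at about 14% in these data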;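 note: 0% = DMSO wells and 100% = wells with reference MMP-13 inhibitor after basal subtraction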
RORa activator: activators of orphan receptor RORA, primary screen, cell-based, luminescence; Nuclear receptor ROR-alpha (Homo sapiens), P35398; CHO-K1 Gal4-RORA LBD luciferase reporter; percent increase over mock-subtracted basal signal; activation, % at 10 µM; 65,000 compounds, 1.5% hits;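 active = activation above the mean of all tested compounds plus 3 SD, cut at about 49% in these data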;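 note: 0% = DMSO-treated RORA cells and 100% = added signal equal to DMSO minus mock-transfected cells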
TNAP act mid DEA: human TNAP enzyme activators, primary screen, biochemical, luminescent, intermediate phosphate acceptor level; Alkaline phosphatase, tissue-nonspecific isozyme (Homo sapiens), P05186; purified TNAP, CDP-star luminescence, 100 mM DEA, 30 min; stronger effect = higher value; scale: 0 levamisole-inhibited, 1 vehicle-only enzyme; activation factor at 20 µM; 64,000 tested, under 10 active; AID 813, 2007;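 active = activation factor of at least 2 at 20 µM, relative to controls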
Target sequence (P05186 whole entry, looked up): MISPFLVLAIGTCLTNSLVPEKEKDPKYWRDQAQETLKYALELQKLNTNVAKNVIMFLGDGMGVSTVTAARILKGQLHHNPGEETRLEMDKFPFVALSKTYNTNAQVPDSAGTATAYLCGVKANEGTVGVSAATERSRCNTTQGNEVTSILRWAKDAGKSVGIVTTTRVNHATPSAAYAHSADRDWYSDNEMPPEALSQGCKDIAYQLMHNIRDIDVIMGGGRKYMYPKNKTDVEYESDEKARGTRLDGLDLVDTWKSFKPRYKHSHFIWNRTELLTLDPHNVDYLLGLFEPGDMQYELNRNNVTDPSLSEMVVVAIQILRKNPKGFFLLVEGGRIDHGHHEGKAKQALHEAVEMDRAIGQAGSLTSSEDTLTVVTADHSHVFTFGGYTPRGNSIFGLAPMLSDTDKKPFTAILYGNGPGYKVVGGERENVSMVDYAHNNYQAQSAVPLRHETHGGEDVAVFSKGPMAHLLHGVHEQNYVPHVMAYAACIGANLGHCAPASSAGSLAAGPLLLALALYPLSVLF
Autofluor 339: intrinsic fluorescence of library compounds, ex339/em460 – biochemical, MLSMR library, data from DPM-DC assay, artefact control, profiling panel; compound autofluorescence, ex339/em460 nm, NADH buffer; stronger effect = higher value; 1 = no-compound wells, NADH background; AID 709, 2007; 65,000 compounds, 5.5% hits; fluorescence fold increase at 10 µM;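 active = at 10 µM, mean starting fluorescence two-fold or more over control wells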;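 note: signal is the first read of a kinetic run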
Numbers without * were called inactive; . = not tested or not shown. An excerpt, so the mix of outcomes need not match the whole.

SMILES	5HT1a antag	A340 absorber	HTR1A agonist	SF-1 act	MMP13 inh	RORa activator	TNAP act mid DEA	Autofluor 339
COC(=O)CNC(=O)C1CCCN1C(=O)CNC(=O)OC(C)(C)C (stereo not drawn)	2	1	2.6	1	2	-4	1	1.1
CCOC(=O)c1c(C)n(C)c2ccc(OCC(O)CN3CCCCCC3)cc12 (stereo not drawn)	9	1.1	-1.0	3	2	37	0.9	1.1
CCOc1ccc(OCCSc2nnnn2C2CCCCC2)cc1	2	1	-0.2	-6	-4	1	0.9	1
c1ccc(-c2ccc(CN3CCN(c4ncccn4)CC3)cc2)cc1	11	1	-3.4	-4	2	0	0.9	1.1
Cc1ccc(C2CC(C(F)(F)F)n3nc(C(=O)NCc4ccco4)cc3N2)cc1 (stereo not drawn)	17	1	-3.0	27	6	3	0.9	1
COC(=O)C1=C(C)C(c2ccc(OC)cc2OC)NC(=O)N1 (stereo not drawn)	4	0.99	-2.8	6	5	-6	0.9	1.1
C1=CC2CC1CC2CN1CCN(c2ccccc2)CC1 (stereo not drawn)	32	1	4.8	-18	7	0	0.8	1
Cc1cc(C)c(C)c(S(=O)(=O)NCC(=O)N2CCCC2)c1C	-6	1	-2.5	14	-13	-9	0.9	1.1
CCOc1ccc(N2C(=O)CSC2c2ccncc2)cc1 (stereo not drawn)	-6	1	-1.3	-8	4	-1	0.9	1.1
COCCCn1c(-c2ccccc2Cl)n[nH]c1=S	-1	1.1	-1.0	-4	2	13	0.9	1.1
Cc1cccc(-c2nc(CS(=O)CC(=O)N3CCN(C)CC3)c(C)o2)c1 (stereo not drawn)	-2	1	0.3	13	3	-12	0.9	1.1
Cc1cccc(NC(=O)CSc2nnc(CSc3nc(C)cc(C)n3)n2Cc2ccco2)c1	-3	1	1.1	-11	-6	-12	0.9	1.1
COc1cc(OC)c(C2CC(=O)N3CN(c4ccccc4C)CSC3=C2C#N)cc1OC (stereo not drawn)	1	1.1	-0.2	-15	-12	-7	0.9	1.1
CCOC(=O)C1CCCN(Cc2cc(Br)ccc2OC)C1 (stereo not drawn)	5	0.95	0.6	4	0	-15	1	1.1
O=C(CC1NCCNC1=O)Nc1ccc(Oc2ccccc2)cc1 (stereo not drawn)	9	1	-5.2	15	4	8	1	1.1
CSc1ccccc1-n1nnnc1SCC(=O)NCc1cccs1	1	1.1	-3.5	35	0	-6	0.9	1
Cc1cc(NC(=O)COC(=O)CSCc2ccc(Cl)c(Cl)c2)no1	-5	1	1.1	15	-1	21	0.9	1
COc1ccc(NC(=O)[C@H](CCS(C)(=O)=O)N2Cc3ccccc3C2=O)c(OC)c1	-8	1	-1.8	10	9	4	0.9	1
C=C(C)Cn1c(SCC#N)nc2ccccc2c1=O	4	1.1	-2.4	-6	2	-1	0.9	1.2
Cc1ccc(NC(=O)CC2SCCNC2=O)cc1Cl (stereo not drawn)	2	1	-2.6	17	-1	11	0.9	1

Just HTR1A agonist and MMP13 inh, for some of the entries so far:
| smiles | HTR1A agonist | MMP13 inh |
| --- | --- | --- |
| C=C(C)Cn1c(SCC#N)nc2ccccc2c1=O | -2.4 | 2 |
| Cc1ccc(NC(=O)CC2SCCNC2=O)cc1Cl (stereo not drawn) | -2.6 | -1 |

As entered above:
For RORa activator, Cc1ccc(C2CC(C(F)(F)F)n3nc(C(=O)NCc4ccco4)cc3N2)cc1 (stereo not drawn) has 3
For Autofluor 339, COCCCn1c(-c2ccccc2Cl)n[nH]c1=S has 1.1
For TNAP act mid DEA, Cc1cccc(-c2nc(CS(=O)CC(=O)N3CCN(C)CC3)c(C)o2)c1 (stereo not drawn) has 0.9
For TNAP act mid DEA, O=C(CC1NCCNC1=O)Nc1ccc(Oc2ccccc2)cc1 (stereo not drawn) has 1

(cont.)
SMILES	5HT1a antag	A340 absorber	HTR1A agonist	SF-1 act	MMP13 inh	RORa activator	TNAP act mid DEA	Autofluor 339
CC1(C)CC(N(Cc2ccco2)C(=O)Cc2ccccc2)CCO1 (stereo not drawn)	.	1	-0.7	0	0	8	0.9	1.1
CC1=C(C(N)=O)C(c2ccccc2)n2nc(-c3cccs3)nc2N1 (stereo not drawn)	9	1.1	1.8	26	-4	-14	1	1.2
O=C(NCCc1cccc(Cl)c1)c1cccnc1	9	0.98	0.0	10	4	24	0.9	1
CCCCc1c(O)nc(SCC(=O)c2ccccc2)[nH]c1=O	7	1	-1.3	-9	4	1	0.9	1.1
CC(C)=CCCC(C)CN(C)CCc1ccccn1 (stereo not drawn)	7	1	-2.4	-4	3	-1	0.9	1
COc1cc(CN2CCN(C(=O)CC(C)C)CC2)cc(OC)c1O	2	1	-0.1	-12	-4	-10	0.9	1.1
O=C(Nc1cc(N2CCOCC2)ncn1)Nc1cccc2ccccc12	-8	1.1	3.5	19	2	2	0.9	1.2
O=C1NC(Cc2c[nH]c3ccccc23)C(=O)N1CCOc1ccccc1 (stereo not drawn)	7	1	-2.4	4	-2	-17	0.9	1
CCn1cc(C(=O)NCC2CCCO2)c(=O)c2cc(F)c(N3CCN(C)CC3)cc21 (stereo not drawn)	.	1	-0.6	4	-60	4	1	1.6
COc1ccc(C(=O)OCCN2C(=O)c3ccccc3C2=O)cc1	-11	1	1.6	-2	-5	13	1	1.1
CCC(C)(C)n1nnnc1C(c1cc2ccc(OC)cc2[nH]c1=O)N1CCN(C2CCCCC2)CC1 (stereo not drawn)	-24	1.1	2.8	6	-3	1	1	1.4
COc1ccccc1N1CCN(Cc2cccc(OC)c2OC)CC1	40	1.1	-2.2	-9	3	-14	1	1.1
NC(=O)C1CCN(C(=O)CSCc2ccccc2Cl)CC1	-7	1	-2.1	4	-3	16	0.9	1
COc1cccc(C(=O)NC2CCSC2=O)c1 (stereo not drawn)	4	1	-3.5	-6	2	-1	0.9	1.1
Cn1c(SCC(=O)NC(C)(C)C)nnc1-c1ccc(C(C)(C)C)cc1	0	1	-1.4	2	6	-2	1.1	1
Cc1ccc(C)c(OCC(O)CN2CCC(C)CC2)c1C (stereo not drawn)	8	1	0.2	1	2	9	0.9	1.1
CC(=O)Nc1ccc(C(=O)c2ccccc2)cc1	11	1.1	-0.5	-2	3	8	1	1
CCOC(=O)N1CCN(C(=O)c2ccc3c(=O)n4c(nc3c2)CCCCC4)CC1	-2	0.99	-4.5	24	7	20	0.9	1.1
O=C(CCCn1nnc(-c2cccnc2)n1)c1ccc(F)cc1	-13	1	0.2	13	-4	-4	0.9	1
CCOC(=O)C(NCc1ccc2c(c1)OCO2)(NC(=O)CC)C(F)(F)F (stereo not drawn)	-1	1	-2.2	-14	-1	-7	0.9	1.1
CCOc1cc(NC(=O)C2CCCO2)c(OCC)cc1NC(=O)C1CC1 (stereo not drawn)	3	1	-0.6	-1	-2	40	0.9	1.1
Cc1cc2c(c(=O)o1)C(C(C)C)C(C#N)=C(N)O2 (stereo not drawn)	-4	0.99	1.1	-2	-1	4	1	1.1
COc1ccc(N(C(C)=O)S(=O)(=O)c2cc(OC)ccc2OC)cc1	-11	1	-0.3	-11	5	-15	0.9	1.1
COc1ccc(Cn2c(=O)n(Cc3ccco3)c(=N)c3c4c(sc32)COC(C)(C)C4)cc1	1	1	2.0	2	6	-14	0.9	1.1
NC(=O)c1ccccc1NC(=O)CCCN1C(=O)CCC1=O	3	0.99	-2.1	-4	3	-15	0.9	1.1
CC1(C)NC(=O)N(CC(O)CN2C(=O)CCC2=O)C1=O (stereo not drawn)	5	1	0.4	-10	-4	8	1	1.1
Cn1c(=O)n(C)c2cc(NC(=O)C(F)(F)F)ccc21	0	0.98	-2.6	-11	-1	-30	0.9	1
Cc1cc(C(=O)NCc2ccco2)cs1	-3	0.97	-0.7	12	3	20	1	1.1
CCc1cc2ccc(OC)cc2nc1SCC(=O)Nc1cc(C)on1	-5	1.1	-1.9	4	-2	19	1	1.1
Cc1cccc(OCCCC(=O)Nc2ccc(S(=O)(=O)Nc3onc(C)c3C)cc2)c1	-5	0.98	-2.6	-28	-3	10	0.9	1.1
COc1ccc(NC(=O)Nc2cccc(C(=O)N3CCOCC3)c2)cc1OC	.	1	0.9	-2	-8	-14	1	1.1
Nc1cc(=O)[nH]c(SCc2nc3ccccc3n2Cc2ccccc2)n1	-6	1	-0.4	-2	0	3	1	1
Cc1ccc(NC(=O)CCn2nc(C)cc2C)c(C)c1	-2	0.99	-3.5	7	8	20	1	1
O=C(CSc1ccc(-c2ccc(F)cc2)nn1)N1CCCCC1	-9	0.99	-4.6	7	0	30	0.9	1.1
Cc1n[nH]c(=O)nc1NC1CCCCC1	1	0.99	-1.4	17	1	2	.	1.1
CCOc1ccccc1N(CC(=O)N1CCOCC1)S(=O)(=O)c1ccc(SC)cc1	3	1	2.7	-9	-12	2	1	1.1
[O-]/[N+](=C\c1ccncc1)c1ccccc1	21	1	-2.8	14	-22	-10	1	0.88
COc1cccc(N2CCN(C(=O)NC3CCCCC3)CC2)c1	4	1.1	0.5	16	1	-5	1	1.1
CN1C(=O)CSc2ccc(NC(=O)N3CCC(N4CCCCC4)CC3)cc21	1	1.1	-2.9	-40	0	-2	1	1.1
COc1ccc(S(=O)(=O)N(C)c2c(C)n(C)n(-c3ccccc3)c2=O)cc1OC	-6	1	-1.9	8	4	3	0.9	1.1
Fc1cccc(CN2CCN(c3ncccn3)CC2)c1	3	1	-1.4	-11	3	4	0.9	1.1
O=C(Nc1nnc(C23CC4CC(CC(C4)C2)C3)s1)c1ccco1	-18	1.1	-1.8	21	1	91*	.	1.1
CCN1CCCC1CNC(=O)CS(=O)(=O)Cc1nc(-c2ccccc2C)oc1C (stereo not drawn)	11	0.98	-2.6	-1	6	-9	0.9	1
O=C(CC1OC(=O)c2ccccc21)c1ccco1 (stereo not drawn)	7	1.2	0.2	-2	0	-29	0.9	0.96
COc1ccc(CCNS(=O)(=O)c2ccc3c(c2)CC(C)N3C(C)=O)cc1OC (stereo not drawn)	-1	0.98	-2.5	6	-4	-25	1	1.1
NC(=O)CN1CCCN(S(=O)(=O)c2ccc(Br)cc2)CC1	-1	1	-2.1	18	0	-1	0.9	1.1
CC(C)(C)C(=O)c1sc(Nc2ccccc2)nc1N	12	1.1	-2.3	48	6	21	0.9	1
COc1ccc(N(C(=O)c2ccc(S(=O)(=O)N3CCOCC3)cc2)C2C=CS(=O)(=O)C2)cc1 (stereo not drawn)	-9	1	-0.5	-17	-4	-4	1	0.82
CCOC(=O)CC1=Nc2ccccc2NC(=O)C1	-4	1.1	-1.5	-24	4	11	0.9	1.1
COCCNCC(=O)NC12CC3CC(CC(C3)C1)C2	-4	0.99	-0.8	-12	-2	-13	0.9	1.1

3 records drawn at random from those above:
SMILES	5HT1a antag	A340 absorber	HTR1A agonist	SF-1 act	MMP13 inh	RORa activator	TNAP act mid DEA	Autofluor 339
CCN1CCCC1CNC(=O)CS(=O)(=O)Cc1nc(-c2ccccc2C)oc1C (stereo not drawn)	11	0.98	-2.6	-1	6	-9	0.9	1
CCOC(=O)CC1=Nc2ccccc2NC(=O)C1	-4	1.1	-1.5	-24	4	11	0.9	1.1
COCCNCC(=O)NC12CC3CC(CC(C3)C1)C2	-4	0.99	-0.8	-12	-2	-13	0.9	1.1
